# GIRK2 activ: opens human GIRK2 potassium channels; 63,000 tested, 0.05% active; P48051; HEK293-GIRK2 thallium flux, Thallos fluorescence; calls only for hits at 25 µM;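 active means among the strongest 0.2% of first-round signals and kept after retests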;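 further: first round at about 10 µM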
# Target sequence (P48051 whole entry, looked up): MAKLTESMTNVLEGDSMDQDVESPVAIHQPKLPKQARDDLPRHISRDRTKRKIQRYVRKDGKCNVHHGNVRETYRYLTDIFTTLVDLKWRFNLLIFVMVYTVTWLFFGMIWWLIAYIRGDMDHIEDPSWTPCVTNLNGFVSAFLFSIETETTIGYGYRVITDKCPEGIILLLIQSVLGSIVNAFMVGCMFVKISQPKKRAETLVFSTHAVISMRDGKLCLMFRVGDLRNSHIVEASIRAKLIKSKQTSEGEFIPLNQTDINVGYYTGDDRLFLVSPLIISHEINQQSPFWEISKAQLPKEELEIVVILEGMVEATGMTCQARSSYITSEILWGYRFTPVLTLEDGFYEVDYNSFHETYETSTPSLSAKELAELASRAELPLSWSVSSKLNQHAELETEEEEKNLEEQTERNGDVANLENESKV
# Calls only; i = inactive. A portion of the library; rates above refer to the full screens.
Molecule | GIRK2 activ
CC(C)c1noc(-c2ccn3c(CC(=O)Nc4ccc(F)cc4)nnc3c2)n1 | i
Cn1cc(CNCC2CCN(c3ncc(C(=O)NO)cn3)CC2)c2ccccc21 | i
O=S(=O)(Nc1ccc2c(c1)CCCN2S(=O)(=O)c1ccccc1)c1ccccc1 | i
Cc1cccc(-n2ncc3c(=O)n(CC(=O)N4CCOCC4)cnc32)c1C | i
CN([C@H](Cc1ccc(OS(=O)(=O)c2cccc3cnccc23)cc1)C(=O)N1CCN(c2ccccc2)CC1)S(=O)(=O)c1cccc2cnccc12 | i
COc1cccc(COc2cn(C)c(C(=O)NCc3cccs3)cc2=O)c1 | i
O=C(CCCC/C=C/c1ccc2c(c1)OCO2)N1CCCCC1 | i
CCOC(=O)C1=C(C)NC(=O)NC1c1c(OCC)ccc2ccccc12 (configuration not stated) | i
COCCNc1cc(C)nc2c(C)c(-c3ccc(OC)c(OC)c3)nn12 | i
COc1ccc(NC(=O)N2CCN(Cc3nc4ccccc4[nH]3)CC2)cc1OC | i
O=C1C(=O)N(c2ccccn2)C(c2ccc(Cl)cc2)C1=C(O)c1ccc(Cl)cc1 (configuration not stated) | i
Cc1ccc(S(=O)(=O)N(C)CC(=O)N2CCCCC2)cc1 | i
O=C(NCc1ccccc1)c1sccc1S(=O)(=O)N1CCN(c2ccc(Cl)cc2)CC1 | i
CCc1nc2c(c(=O)n1CC(=O)N(CC)c1cccc(C)c1)CN(Cc1ccccc1)CC2 | i
O=C(CSc1nnc2scc(-c3ccc(Cl)cc3)n12)Nc1nc(-c2ccccc2)ns1 | i
Cn1nc(C(=O)N2CCN(C(c3ccccc3)c3ccccc3)CC2)ccc1=O | i
Cc1cc(N2C(=O)c3oc4cc(C)c(C)cc4c(=O)c3C2c2cccc([N+](=O)[O-])c2)no1 (configuration not stated) | i
COc1cccc(NC(=O)CN2CCC(c3nc(-c4cccs4)no3)CC2)c1 | i
O=C(/C=C/c1ccc(F)cc1)c1cc(Cl)ccc1O | i
CC(=O)c1ccc(NC(=O)COc2cc(C)nc(-c3ccc(Cl)cc3)n2)cc1 | i
CCOC(=O)C1CCCN(c2ccc(S(=O)(=O)Cc3ccc(Cl)cc3)nn2)C1 (configuration not stated) | i
CCOc1ccc(CC(=O)NCC2(CO)CC2)cc1 | i
CCCC(CCC)C(=O)Nc1cc(C)nn1-c1nc2c(cnn2-c2ccccc2)c(=O)[nH]1 | i
CC1=C(CO[C@@H]2O[C@H](CO)[C@@H](O)[C@H](O)[C@H]2O)C(=O)O[C@@H]([C@@H](C)C2CCC3[C@H]4C(CC[C@@]32C)[C@@]2(C)C(=O)C=CCC2=C[C@H]4O)C1 (some centres not stated) | i
O=C1CCSCC(C(=O)NCCC2=CCCCC2)N1 (configuration not stated) | i
Cn1cc(C(=O)NCc2ccc(F)cc2F)c(S(=O)(=O)N2CCCCC2)n1 | i
COc1ccc(OCc2noc(CNC(=O)NCc3cccs3)n2)cc1 | i
COC(=O)Cn1c(=O)c2c(nc3n2CCCN3c2ccccc2C)n(C)c1=O | i
CCOc1ccc(NC(=O)C2=Cc3cc(OC)ccc3OC=C2)cc1 | i
CON=C(C(=O)NC1C(=O)N2C(C(=O)O)=C(COC(C)=O)CSC12)c1csc(N)n1 (configuration not stated) | i
COc1ccc(CCNC(=O)Cn2nc(C)ccc2=O)cc1 | i
NC(=O)c1ccc(NC(=O)CN2CCC(Cn3c(COc4ccccc4)nc4ccccc43)CC2)cc1 | i
CCOc1ccccc1NC(=O)c1nnn(-c2ccc(Cl)cc2)n1 | i
CCOc1ccc(C2c3c(oc4ccc(C)cc4c3=O)C(=O)N2c2nc(C)cs2)cc1 (configuration not stated) | i
CN(C)C(CNC(=O)Nc1ccccc1C(F)(F)F)c1cn(C)c2ccccc12 (configuration not stated) | i
CCN1CCN(CCOc2ccc3c(=O)c(-c4ccc(OC)cc4)coc3c2C)CC1 | i
Cc1ccc2c(Nc3cccc(C#N)c3)c(C(=O)N3CCCC3)cnc2n1 | i
O=C1C2N=NN(Cc3nc(-c4cccc(Br)c4)no3)C2C(=O)N1c1ccc(F)cc1 (configuration not stated) | i
CCn1c(C2CC(=O)N(c3cccc(Cl)c3C)C2)nc2ccccc21 (configuration not stated) | i
CCCCNC(=O)c1ccc(-n2ccnc2SCC(=O)Nc2cc(OC)cc(OC)c2)cc1 | i
O=C(CCCCCn1cnc2ccccc2c1=O)Nc1ccc(C(F)(F)F)cc1 | i
O=C(NCc1cccc2ccccc12)NCC1CCN(C(=O)c2cc3ccccc3o2)CC1 | i
CC(O)(CCc1ccccc1)CNC(=O)COc1ccc(Cl)cc1 (configuration not stated) | i
COc1ccccc1-c1coc2c3c(ccc2c1=O)OCN(CCCc1ccccc1)C3 | i
Cn1c(SCC(=O)NCc2ccccc2)nnc1-c1cccn(C)c1=O | i
COc1cccc(COc2coc(C(=O)Nc3ccc(S(N)(=O)=O)cc3)cc2=O)c1 | i
CCOc1ccc(C(=O)Nc2ccc(-n3c(C)nc4ncccc4c3=O)cc2)cc1 | i
Cc1cc(CN2CCC(CNC(=O)Nc3ccccc3Cl)CC2)c(C)o1 | i
Cc1ccc(C)c(Cn2c(=O)c3c(nc4[nH]c(C)c(C)n43)n(C)c2=O)c1 | i
COC(=O)c1ccc(Oc2c(C)oc3c4c(ccc3c2=O)OCN(C(C)C)C4)cc1 | i

# Next compounds.
Molecule | GIRK2 activ
CCn1nc(C)cc1C(=O)N1CC(Oc2nc3ccccc3s2)C1 | i
CSc1cccc(NC(=O)c2sccc2S(=O)(=O)N2CCN(c3ccccc3F)CC2)c1 | i
Cc1ccccc1C(=O)N1CCN(C(=O)C(NC(=O)c2ccco2)S(=O)(=O)c2ccccc2)CC1 (configuration not stated) | i
O=C(Nc1cccc(C(F)(F)F)c1)N1CCC(Cn2cnc3ccccc32)CC1 | i
CCc1ccc2c(c1)c(=O)c(S(=O)(=O)c1ccc(C)cc1)cn2CC(=O)Nc1ccccc1 | i
COc1ccc(-c2nc(C#N)c(N3CCN(C(=O)c4ccco4)CC3)o2)cc1OC | i
O=C1/C(=C/c2ccc3c(c2)OCO3)Oc2c1ccc1c2CN(Cc2ccco2)CO1 | i
CCOC(=O)CSc1nnc(N2CCN(c3ccc(F)cc3)CC2)s1 | i
CCCNC(=O)/C(C#N)=C1\N=C(NC(=O)c2cccc([N+](=O)[O-])c2)c2ccccc21 | i
O=C(CSCc1ccccc1)NCC(O)c1ccoc1 (configuration not stated) | i
Cc1ccc(CNC(=O)C(=O)NCCc2ccoc2)cc1 | i
O=C(NCC1CCN(Cc2ccco2)CC1)Nc1cccs1 | i
O=C(NCC(O)C1CCCCC1)c1ccco1 (configuration not stated) | i
Cc1cc(C)c(S(=O)(=O)NCCNC(=O)c2ccc(NC(=O)C(C)(C)C)cc2)cc1C | i
OC(COCC1CC2CCC1C2)CN1CCN(c2ccc(F)cc2)CC1 (configuration not stated) | i
CCCCOc1ccc(NC(=O)CCCn2nnc3ccccc3c2=O)cc1 | i
COc1ccc(Cc2cnc(NC(=O)C3Cc4ccccc4C(=O)O3)s2)cc1 (configuration not stated) | i
Cc1nccn1-c1ncc(NC(=O)/C=C/c2ccco2)cn1 | i
O=C(Cn1nc2ccc(Sc3cccc(F)c3)nn2c1=O)Nc1cccc(Cl)c1 | i
N#Cc1ccc(COCC2CCN(Cc3cccc(C(F)(F)F)c3)CC2)cc1 | i
CCSc1nnc(NC(=O)c2coc(NC(=O)c3ccccc3)n2)s1 | i
COc1ccc(C)cc1NC(=O)CN1CCC(c2nc(-c3cccs3)no2)CC1 | i
O=C(COc1ccc(Cl)cc1)N1CCC2(CC1)OCCCO2 | i
CCc1ccc(NC(=O)c2ccc3c(=O)n4c(nc3c2)SCC4)cc1 | i
CCOC(=O)N1CCN(C(=O)CN2C(=O)NC3(CCCCC3C)C2=O)CC1 (configuration not stated) | i

# Arranged by length of the SMILES (lowest first): part of the list above
Molecule | GIRK2 activ
O=C(COc1ccc(Cl)cc1)N1CCC2(CC1)OCCCO2 | i
CSc1cccc(NC(=O)c2sccc2S(=O)(=O)N2CCN(c3ccccc3F)CC2)c1 | i
Cc1ccccc1C(=O)N1CCN(C(=O)C(NC(=O)c2ccco2)S(=O)(=O)c2ccccc2)CC1 (configuration not stated) | i

# 2 successive records from above, quoted:
Molecule | GIRK2 activ
O=C(COc1ccc(Cl)cc1)N1CCC2(CC1)OCCCO2 | i
CCc1ccc(NC(=O)c2ccc3c(=O)n4c(nc3c2)SCC4)cc1 | i

# (further entries)
Molecule | GIRK2 activ
COc1ccc(OC)c(-c2cc(C(=O)NCC#CCOc3ccc4c(c3)OCO4)n(C)n2)c1 | i
CSc1ccccc1C(=O)N(CC1CCCO1)c1nc2c(Cl)cccc2s1 (configuration not stated) | i
CCOc1ccc(N(C)S(=O)(=O)c2ccsc2C(=O)NCc2ccc3c(c2)OCO3)cc1 | i
CC(C)(C)NC(=O)NCCc1ccoc1 | i
O=C(NCCc1ncc(-c2ccco2)[nH]1)c1cccs1 | i
COc1cc(CNC(=O)CN(C)C(=O)c2c[nH]c3ccccc23)cc(OC)c1OC | i
Cc1noc(C)c1S(=O)(=O)NCC1CCN(Cc2ccco2)CC1 | i
O=C(CSc1nc2ccccc2c(=O)n1NC(=O)c1ccccc1)c1ccccc1 | i
O=C1OC2CC1N(C(=O)c1ccc(Br)o1)C2 (configuration not stated) | i
COc1nn(C)cc1C(=O)N1CCC(C(=O)Nc2nccs2)CC1 | i
CCOC(=O)CCC(=O)N1CCCC(c2nnc(-c3ccc4c(c3)OCO4)o2)C1 (configuration not stated) | i
CCOc1ccc(S(=O)(=O)c2cnc(SCC(=O)NCc3cccc(OC)c3)[nH]c2=O)cc1 | i
CCOc1cc(C(=O)Nc2cc3c4c(c2)CCC(=O)N4CCC3)cc(OCC)c1OCC | i
CC(=O)N1CCc2c(sc(NC(=O)c3ccccc3)c2-c2nc3ccccc3s2)C1 | i
Cc1c(C)n2c3c(=O)n(Cc4ccccc4)c(=O)n(C)c3nc2n1C(C)C | i
COCCN(Cc1ccoc1)S(=O)(=O)c1ccc2c(c1)CCCC2 | i
COc1cccc2cc(C(=O)NCc3nc(-c4ccccc4)no3)c(=O)oc12 | i
Cn1cccc(C(=O)OC2CN(c3nc4c(Cl)cccc4s3)C2)c1=O | i
CSc1ccccc1C(=O)N1CCN(c2c(C)nn(C3CCS(=O)(=O)C3)c2C)CC1 (configuration not stated) | i
CCOC(=O)CNC(=O)C1CCN(c2nc3c(-c4cccc(C)c4)csc3c(=O)[nH]2)CC1 | i
CCN(CC)S(=O)(=O)c1ccc(C(=O)Nc2ccc(CC(=O)NCc3cccs3)cc2)cc1 | i
CCN(CCCNC(=O)CCc1nc2sc3c(c2c(=O)[nH]1)CCCCC3)c1ccccc1 | i
O=c1cccnn1CCNS(=O)(=O)c1ccc(Cl)s1 | i
CN1CCN(C(CNC(=O)c2cccc(F)c2)c2cccn2C)CC1 (configuration not stated) | i
Cc1nn(C2CCS(=O)(=O)C2)c(C)c1N1CCN(C(=O)c2cn(C)nn2)CC1 (configuration not stated) | i
COc1cccc(C(=O)NC2CCN(C(=O)c3cc(-c4ccc(F)cc4)n[nH]3)CC2)c1 | i
Cc1noc(C)c1S(=O)(=O)NCCn1nc(C2CC2)n(-c2ccccc2)c1=O | i
CCn1nc(-c2cccc(Br)c2)ccc1=O | i
CC(=O)c1cccc(NC(=O)c2cc(=O)c(OCc3ccccc3)cn2C)c1 | i
CC(C)(C)c1ccc(C(=O)NCC(O)c2ccoc2)cc1 (configuration not stated) | i
Cn1nnn(-c2ccc(NC(=O)/C=C/c3ccccc3)cc2)c1=O | i
O=S(=O)(NCCN1CCN(c2ccccc2F)CC1)c1ccc(Cl)s1 | i
N#Cc1cccc(NC(=O)CSc2nccnc2N2CCN(c3ccccc3)CC2)c1 | i
O=C(NCCc1ccccc1)NCC1CCN(C(=O)c2ccncc2)CC1 | i
CCOc1cccc2sc(N(CCn3nc(C)cc3C)C(=O)c3cccs3)nc12 | i
O=C(NCC1(c2cccs2)CC1)C1CC=CCC1 (configuration not stated) | i
O=C(CN1CCN(C(=O)c2cc(-c3ccco3)[nH]n2)CC1)c1ccco1 | i
Cc1cccc(Cn2c(=O)c3c(nc4[nH]c(C)c(C)n43)n(C)c2=O)c1 | i
COc1ccc(C2(C)NC(=O)N(CC(=O)N3CCc4ccccc43)C2=O)cc1 (configuration not stated) | i
Cc1c(C)n2c3c(=O)n(CC(=O)OCc4ccccc4)c(=O)n(C)c3nc2n1-c1ccc(F)cc1 | i
C=CCSc1nnc(-c2ccccc2NC(=O)c2ccc(OC)c(OC)c2)o1 | i
Cc1cc(C)c2nc(C)cc(NC(=O)COc3ccc([N+](=O)[O-])cc3)c2c1 | i
COc1cc(NS(=O)(=O)c2ccccc2)c2ncccc2c1 | i
CC(=O)Nc1ccc(C(=O)NCCNS(=O)(=O)c2ccc(F)cc2)cc1 | i
O=c1c2cc(-c3cccs3)nn2cnn1Cc1nc(-c2cccc(Br)c2)no1 | i
CCOc1ccc(C(=O)NCCc2nc(C)cc(C(F)(F)F)n2)cc1OCC | i

# An excerpt from above in order of count of non-hydrogen atoms, descending.
Molecule | GIRK2 activ
Cc1c(C)n2c3c(=O)n(CC(=O)OCc4ccccc4)c(=O)n(C)c3nc2n1-c1ccc(F)cc1 | i
N#Cc1cccc(NC(=O)CSc2nccnc2N2CCN(c3ccccc3)CC2)c1 | i
CCOc1cccc2sc(N(CCn3nc(C)cc3C)C(=O)c3cccs3)nc12 | i
COc1ccc(C2(C)NC(=O)N(CC(=O)N3CCc4ccccc43)C2=O)cc1 (configuration not stated) | i
O=C(NCCc1ccccc1)NCC1CCN(C(=O)c2ccncc2)CC1 | i
CC(=O)Nc1ccc(C(=O)NCCNS(=O)(=O)c2ccc(F)cc2)cc1 | i
Cc1cccc(Cn2c(=O)c3c(nc4[nH]c(C)c(C)n43)n(C)c2=O)c1 | i
Cn1nnn(-c2ccc(NC(=O)/C=C/c3ccccc3)cc2)c1=O | i
COc1cc(NS(=O)(=O)c2ccccc2)c2ncccc2c1 | i
CC(C)(C)c1ccc(C(=O)NCC(O)c2ccoc2)cc1 (configuration not stated) | i
O=C(NCC1(c2cccs2)CC1)C1CC=CCC1 (configuration not stated) | i
CCn1nc(-c2cccc(Br)c2)ccc1=O | i
